Assay outcomes: PubChem BioAssay, several laboratories
CatS inh – human cathepsin S inhibition. P25774. AID 501. 62,000 compounds, 0.06% hits. recombinant cathepsin S, AMC dipeptide fluorescence, pooled mixtures. inhibition, %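 (tested at 5 µM per compound within 10-compound mixtures)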; in the data active means inhibition above about 32%, passing the limit was not always enough;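 further: 0% = enzyme without compound and 100% = blank without enzyme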
JNK3 inh – JNK3 (human) kinase inhibition; P53779; purified JNK3 kinase activity, HTS; inhibition, % at 8 µM; 60,000 compounds, 0.61% hits; in the data active means inhibition above about 17%;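 further: 0% = DMSO and 100% = reference inhibitor; many of its hits are not listed in these tables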
FXIIa mix inh – factor XIIa (human) inhibition, mixture screen | purified FXIIa, fluorogenic substrate, pooled mixtures | AID 684 | inhibition, % at 5 µM | P00748 | 62,000 compounds, 0.2% hits;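 further: 0% = enzyme without compound and 100% = no enzyme blank; some results filed as inactive read as strong as hits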
Target sequence (P00748 20-372 limits assumed): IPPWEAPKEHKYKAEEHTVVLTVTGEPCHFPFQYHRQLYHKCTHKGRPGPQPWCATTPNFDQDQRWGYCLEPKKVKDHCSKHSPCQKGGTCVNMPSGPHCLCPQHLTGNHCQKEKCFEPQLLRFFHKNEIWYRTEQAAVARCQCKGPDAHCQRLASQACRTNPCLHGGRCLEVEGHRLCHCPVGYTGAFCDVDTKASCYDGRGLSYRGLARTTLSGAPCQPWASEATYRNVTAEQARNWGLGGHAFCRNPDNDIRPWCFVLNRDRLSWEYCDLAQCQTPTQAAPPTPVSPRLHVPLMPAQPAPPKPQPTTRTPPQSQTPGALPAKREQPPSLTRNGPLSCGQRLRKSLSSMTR
Target sequence (P00748 373-615 limits assumed): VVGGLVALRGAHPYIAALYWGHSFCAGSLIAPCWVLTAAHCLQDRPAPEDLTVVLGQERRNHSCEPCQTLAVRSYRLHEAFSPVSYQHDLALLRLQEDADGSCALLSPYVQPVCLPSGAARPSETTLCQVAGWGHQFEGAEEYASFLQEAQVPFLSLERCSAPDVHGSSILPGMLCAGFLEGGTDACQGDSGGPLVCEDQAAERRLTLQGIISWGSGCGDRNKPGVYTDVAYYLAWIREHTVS
C1s block – human complement C1s inhibition; purified C1s, fluorogenic AMC substrate, pooled mixtures; mean inhibition % of two 10-compound mixtures (active compounds read high), % at 5 µM (by protocol); 62,000 compounds, 0.16% hits;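 active means inhibition above 20% in each of the two 10-compound mixture wells holding the compound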;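 further: 0% = enzyme wells lacking compound mixture and 100% = no-enzyme blank wells; some compounds called inactive have numbers as strong as hits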
FXIa inh mix – inhibitors of human coagulation factor XIa, pooled mixtures. 62,000 compounds, 0.19% hits. P03951. inhibition, % at 5 µM. AID 680. purified FXIa, fluorogenic substrate;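 further: each value is inhibition by a whole ten-compound pool holding the compound; 0% = enzyme with no mixture and 100% = wells lacking enzyme; strong numbers were not always called active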
CatL inh – inhibitors of human cathepsin L; P07711; purified cathepsin L, fluorogenic substrate, fluorescence; inhibition, %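 (tested at 10 µM)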; 58,000 compounds, 0.17% hits; in the data active means inhibition above about 45%;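 further: 0% = enzyme with no compound and 100% = no enzyme blank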
Target sequence (P07711 114-288 limits assumed): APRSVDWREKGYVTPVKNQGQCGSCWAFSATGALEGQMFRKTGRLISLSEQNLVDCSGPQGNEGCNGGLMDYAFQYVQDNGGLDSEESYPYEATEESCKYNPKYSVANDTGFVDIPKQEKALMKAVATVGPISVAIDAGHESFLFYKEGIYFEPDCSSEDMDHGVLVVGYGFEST
Target sequence (P07711 292-333 limits assumed): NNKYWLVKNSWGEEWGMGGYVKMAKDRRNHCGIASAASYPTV
Cathepsin G inh – inhibitors of human cathepsin G; P08311; purified enzyme, AMC-tetrapeptide fluorescence, pooled mixtures; inhibition, % at 5 µM (by protocol); 62,000 compounds, 0.2% hits; AID 581;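 active means inhibition above 20% in each of the two mixture wells holding the compound; inactive means inhibition of 20% or less in either well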;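 further: 0% = enzyme control without mixture and 100% = blank lacking enzyme; strong numbers were not always called active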
Target sequence (P08311 21-244 limits assumed): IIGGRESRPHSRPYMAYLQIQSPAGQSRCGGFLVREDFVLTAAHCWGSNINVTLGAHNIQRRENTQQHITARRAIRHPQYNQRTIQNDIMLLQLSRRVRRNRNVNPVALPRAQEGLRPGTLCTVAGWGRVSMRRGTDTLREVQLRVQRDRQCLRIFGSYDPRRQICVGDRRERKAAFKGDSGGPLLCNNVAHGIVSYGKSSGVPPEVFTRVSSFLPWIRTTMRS
* marks the source's active call; other numbers are inactive results. Unless noted, no stated cut-off is given here; in the data, active means inhibition above about 20% (passing the limit was not always enough); inactive means the rest.

What do the screens show for `Cc1cc(=O)oc2cc(OCC(=O)OCC(=O)NCc3ccc4c(c3)OCO4)ccc12`?
CatS inh: 21; JNK3 inh: -13; FXIIa mix inh: 1; C1s block: -9; FXIa inh mix: 4; CatL inh: 8; Cathepsin G inh: 9

What do the screens show for `Cc1[nH]n2c(=O)c3c(nc2c1-c1ccccc1)CCC3`?
CatS inh: 20; JNK3 inh: -3; FXIIa mix inh: 1; C1s block: -12; FXIa inh mix: 6; CatL inh: 2; Cathepsin G inh: 0

What do the screens show for `CC(C)(C)n1ncc2c(=O)n(CC(=O)NCc3ccccc3)cnc21`?
CatS inh: 3; JNK3 inh: -6; FXIIa mix inh: 0; C1s block: -1; FXIa inh mix: 6; CatL inh: 1; Cathepsin G inh: 7

What do the screens show for `COc1ccc2[nH]cc(C(=O)N3CCCCC3)c(=O)c2c1`?
CatS inh: -4; JNK3 inh: 7; FXIIa mix inh: 5; C1s block: -4; FXIa inh mix: 0; CatL inh: -11; Cathepsin G inh: -3

How did O=C(Nc1cccc(NC(=O)c2cccs2)c1)c1ccco1 do in these assays?
CatS inh: -6; JNK3 inh: 12; FXIIa mix inh: 9; C1s block: 4; FXIa inh mix: 11; CatL inh: -4; Cathepsin G inh: 6

Results for c1ccc2c(c1)CCN(c1ncnc3nc[nH]c13)C2 ?
CatS inh: -3; JNK3 inh: 6; FXIIa mix inh: 1; C1s block: -1; FXIa inh mix: 9; CatL inh: -7; Cathepsin G inh: 9

What do the screens show for `Cc1[nH]n2c(=O)c3c(nc2c1-c1ccccc1)CCCC3`?
CatS inh: 16; JNK3 inh: 2; FXIIa mix inh: 7; C1s block: 3; FXIa inh mix: 0; Cathepsin G inh: 10

How did CN1CCC(NC(=O)Cc2c(F)cccc2Cl)CC1 do in these assays?
CatS inh: 21; JNK3 inh: -4; FXIIa mix inh: 10; C1s block: -25; FXIa inh mix: 10; CatL inh: 18; Cathepsin G inh: 0

How did c1ccc(COc2ccc(Nc3ncnc4nc[nH]c34)cc2)cc1 do in these assays?
CatS inh: -2; JNK3 inh: 5; FXIIa mix inh: 4; C1s block: 2; FXIa inh mix: 2; CatL inh: 3; Cathepsin G inh: 5

What do the screens show for `c1coc(CNc2nc(-c3ccncc3)cs2)c1`?
CatS inh: -1; JNK3 inh: 4; FXIIa mix inh: 14; C1s block: -11; FXIa inh mix: 3; CatL inh: 6; Cathepsin G inh: -14

What do the screens show for `CC(NS(=O)(=O)c1ccccc1)C(=O)Nc1ccc(S(N)(=O)=O)cc1` (stereo not given)?
CatS inh: -11; JNK3 inh: 4; FXIIa mix inh: 6; C1s block: -85; FXIa inh mix: -16; CatL inh: -13; Cathepsin G inh: -3

How did CC(C)(C)C1(c2ccccc2)NC(=O)N(CC(=O)N2CCOCC2)C1=O (stereo not given) do in these assays?
CatS inh: 11; JNK3 inh: -4; FXIIa mix inh: 0; C1s block: -4; FXIa inh mix: -2; CatL inh: 21; Cathepsin G inh: 3

What do the screens show for `c1ccc(CN2CCN(c3ncnc4nc[nH]c34)CC2)cc1`?
CatS inh: 16; JNK3 inh: -8; FXIIa mix inh: 0; C1s block: 9; FXIa inh mix: 5; CatL inh: -1; Cathepsin G inh: 10

How did CC(=O)Nc1nnc(-c2ccc3c(c2)CCCC3)o1 do in these assays?
CatS inh: 2; JNK3 inh: 0; FXIIa mix inh: -12; C1s block: -1; FXIa inh mix: 12; CatL inh: -4; Cathepsin G inh: -1

Results for COC(=O)CNc1nc(-c2ccncc2)nc2ccccc12 ?
CatS inh: 4; JNK3 inh: -3; FXIIa mix inh: -1; C1s block: 11; FXIa inh mix: 6; CatL inh: 9; Cathepsin G inh: 8

How did O=C(CN1C(=O)COCC1=O)N1CCOCC1 do in these assays?
CatS inh: 1; JNK3 inh: 4; FXIIa mix inh: -7; C1s block: -1; FXIa inh mix: 1; CatL inh: 0; Cathepsin G inh: 8

How did CCOCCCNC(=O)c1cn(C)c2ccc(S(=O)(=O)N(C)C3CCCCC3)cc2c1=O do in these assays?
CatS inh: 0; JNK3 inh: 8; FXIIa mix inh: 4; C1s block: 10; FXIa inh mix: 6; Cathepsin G inh: 12

How did COc1ccc(NC(=O)c2ccc(CN3CCN(c4ccccc4)CC3)cc2)cc1OC do in these assays?
CatS inh: 0; JNK3 inh: -12; FXIIa mix inh: 1; C1s block: -13; FXIa inh mix: -10; CatL inh: 4; Cathepsin G inh: -14

How did CSc1cccc(NC(=O)c2nnn(Cc3ccccc3)c2N)c1 do in these assays?
CatS inh: 0; JNK3 inh: -2; FXIIa mix inh: 4; C1s block: 4; FXIa inh mix: 12; CatL inh: 1; Cathepsin G inh: 0

How did Clc1ccc(Cl)c(-c2nn3c(Cn4cnc5ccccc54)nnc3s2)c1 do in these assays?
CatS inh: 15; JNK3 inh: 2; FXIIa mix inh: 31; C1s block: 14; FXIa inh mix: 3; CatL inh: 16; Cathepsin G inh: 15

Results for COc1ccc(Cn2c(C)nc3oc4cc(OC)ccc4c(=O)c3c2=O)cc1 ?
CatS inh: 14; JNK3 inh: 2; FXIIa mix inh: -18; C1s block: -5; FXIa inh mix: 4; CatL inh: -4; Cathepsin G inh: 1

Results for Cc1cc(NC(=O)c2ccc(NC(=O)c3cccs3)cc2)no1 ?
CatS inh: 19; JNK3 inh: 8; FXIIa mix inh: 10; C1s block: -36; FXIa inh mix: 5; Cathepsin G inh: 11

What do the screens show for `O=C(Nc1cccc(N2CCCC2)c1)c1cccs1`?
CatS inh: -7; JNK3 inh: -18; FXIIa mix inh: 5; C1s block: -36; FXIa inh mix: 4; CatL inh: 5; Cathepsin G inh: -12

How did CCn1c(SCC(=O)Nc2nc(-c3ccccc3)cs2)nnc1-c1ccccc1 do in these assays?
CatS inh: -2; JNK3 inh: -1; FXIIa mix inh: -21; C1s block: -4; FXIa inh mix: 7; Cathepsin G inh: 3

How did c1ccc(CN2CCN(c3nc4ccccc4n4cnnc34)CC2)cc1 do in these assays?
CatS inh: 1; JNK3 inh: -6; FXIIa mix inh: 0; C1s block: 3; FXIa inh mix: 3; CatL inh: -5; Cathepsin G inh: 15

Results for CC1(C)CC(=O)c2cnc(NC(=O)Cc3ccc(Cl)cc3)nc2C1 ?
CatS inh: -9; JNK3 inh: -5; FXIIa mix inh: 3; C1s block: -62; FXIa inh mix: 6; CatL inh: 14; Cathepsin G inh: 0

How did CCn1c(SCC(=O)Nc2cccc(NC(=O)c3cccs3)c2)nnc1-c1ccncc1 do in these assays?
CatS inh: 5; JNK3 inh: 4; FXIIa mix inh: 4; C1s block: 7; FXIa inh mix: 6; CatL inh: 23; Cathepsin G inh: 4

Results for CCOC(=O)c1nnn(-c2nonc2N)c1-c1cccs1 ?
CatS inh: -10; JNK3 inh: -8; FXIIa mix inh: -15; C1s block: 6; FXIa inh mix: 8; CatL inh: 4; Cathepsin G inh: 6

What do the screens show for `CCN1CCN(C(=O)c2ccc(NS(=O)(=O)c3ccccc3)cc2)CC1`?
CatS inh: -5; JNK3 inh: 4; FXIIa mix inh: 19; C1s block: 15; FXIa inh mix: 1; CatL inh: 8; Cathepsin G inh: 8

What do the screens show for `CC(C)OC(=O)CSc1nc2cccnc2n1C1CCCCC1`?
CatS inh: 4; JNK3 inh: 11; FXIIa mix inh: 12; C1s block: 2; FXIa inh mix: -2; CatL inh: 3; Cathepsin G inh: 9

How did CCc1nnc(NC(=O)CSc2nc3cccnc3n2C2CCCCC2)s1 do in these assays?
CatS inh: -6; JNK3 inh: -1; FXIIa mix inh: -15; C1s block: 10; FXIa inh mix: 8; CatL inh: 4; Cathepsin G inh: 9

How did O=C(Cn1nnc(-c2cc(Cl)ccc2-n2cnnn2)n1)N1CCCc2ccccc21 do in these assays?
CatS inh: 2; JNK3 inh: 6; FXIIa mix inh: 5; C1s block: 6; FXIa inh mix: 8; CatL inh: 5; Cathepsin G inh: 8

Results for O=c1c2[nH]c3ccccc3c2ncn1Cc1cccnc1 ?
CatS inh: 10; JNK3 inh: 8; FXIIa mix inh: -4; C1s block: 15; FXIa inh mix: -1; CatL inh: 10; Cathepsin G inh: 11

Results for c1ccc2c(c1)OCC(CNc1ncnc3nc[nH]c13)O2 (stereo not given) ?
CatS inh: -1; JNK3 inh: 3; FXIIa mix inh: 5; C1s block: 10; FXIa inh mix: 5; CatL inh: 81*; Cathepsin G inh: 8

How did CC(CC(=O)Nc1ccncc1)c1ccccc1 (stereo not given) do in these assays?
CatS inh: 7; JNK3 inh: -3; FXIIa mix inh: 8; C1s block: 3; FXIa inh mix: -3; CatL inh: 6; Cathepsin G inh: 8

Results for NC1C2CN(c3nc4c(cc3F)c(=O)c(C(=O)O)cn4-c3ccc(F)cc3F)CC12 (stereo not given) ?
CatS inh: 9; JNK3 inh: -2; FXIIa mix inh: 3; C1s block: 8; FXIa inh mix: 13; CatL inh: -6; Cathepsin G inh: 2

How did COc1ccc(C(=O)Nc2ccc(S(=O)(=O)Nc3onc(C)c3C)cc2)cc1OC do in these assays?
CatS inh: 0; JNK3 inh: 10; FXIIa mix inh: 6; C1s block: -9; FXIa inh mix: 2; CatL inh: 27; Cathepsin G inh: -7

How did CCn1c(SCC(=O)Nc2cc(NC(C)=O)ccc2OC)nnc1-c1ccncc1 do in these assays?
CatS inh: 4; JNK3 inh: 1; FXIIa mix inh: 6; C1s block: -34; FXIa inh mix: 10; CatL inh: 12; Cathepsin G inh: 2

What do the screens show for `COC(=O)CN1C(=O)N(c2ccccc2)C(N(O)C(=O)Nc2ccccc2)C1(C)C` (stereo not given)?
CatS inh: 3; JNK3 inh: -5; FXIIa mix inh: 2; C1s block: -21; FXIa inh mix: -3; CatL inh: 2; Cathepsin G inh: 5

What do the screens show for `O=C(CCCc1nc(-c2ccccc2Cl)no1)NC1CCCCC1`?
CatS inh: 17; JNK3 inh: -4; FXIIa mix inh: 4; C1s block: 2; FXIa inh mix: 9; CatL inh: 6; Cathepsin G inh: 3

Four structures out of the list, arranged by length of the SMILES, smallest number first.
What do the screens show for `O=C(Nc1cccc(N2CCCC2)c1)c1cccs1`?
CatS inh: -7; JNK3 inh: -18; FXIIa mix inh: 5; C1s block: -36; FXIa inh mix: 4; CatL inh: 5; Cathepsin G inh: -12

What do the screens show for `CC(C)OC(=O)CSc1nc2cccnc2n1C1CCCCC1`?
CatS inh: 4; JNK3 inh: 11; FXIIa mix inh: 12; C1s block: 2; FXIa inh mix: -2; CatL inh: 3; Cathepsin G inh: 9

What do the screens show for `O=C(CCCc1nc(-c2ccccc2Cl)no1)NC1CCCCC1`?
CatS inh: 17; JNK3 inh: -4; FXIIa mix inh: 4; C1s block: 2; FXIa inh mix: 9; CatL inh: 6; Cathepsin G inh: 3

How did CCc1nnc(NC(=O)CSc2nc3cccnc3n2C2CCCCC2)s1 do in these assays?
CatS inh: -6; JNK3 inh: -1; FXIIa mix inh: -15; C1s block: 10; FXIa inh mix: 8; CatL inh: 4; Cathepsin G inh: 9

Continued.
How did O=C(c1cc(S(=O)(=O)N2CCOCC2)ccc1F)N1CCCc2ccccc21 do in these assays?
CatS inh: 7; JNK3 inh: 1; FXIIa mix inh: -12; C1s block: 5; FXIa inh mix: 7; CatL inh: 0; Cathepsin G inh: -5

What do the screens show for `c1ccc(CC2CCN(c3nc4ccccc4n4nnnc34)CC2)cc1`?
CatS inh: 3; JNK3 inh: 1; FXIIa mix inh: 0; C1s block: -30; FXIa inh mix: 8; CatL inh: -5; Cathepsin G inh: -37

What do the screens show for `CC(C)COc1ccc(-c2nnc(-c3ccncc3)o2)cc1`?
CatS inh: 23; JNK3 inh: -1; FXIIa mix inh: 7; C1s block: -10; FXIa inh mix: 4; CatL inh: -2; Cathepsin G inh: 2

How did CC1CCCCN1c1nc(-c2ccncc2)nc2ccccc12 (stereo not given) do in these assays?
CatS inh: 3; JNK3 inh: 3; FXIIa mix inh: -10; C1s block: -11; FXIa inh mix: 3; CatL inh: -2; Cathepsin G inh: 6

What do the screens show for `Cc1ccc(-c2nc3cnccn3c2Nc2ccc3c(c2)OCO3)o1`?
CatS inh: -6; JNK3 inh: -4; FXIIa mix inh: 0; C1s block: -17; FXIa inh mix: 2; CatL inh: -21; Cathepsin G inh: -4

What do the screens show for `O=C(CS(=O)(=O)Cc1ccccc1)Nc1nc2c(s1)CCCC2`?
CatS inh: 4; JNK3 inh: -5; FXIIa mix inh: 5; C1s block: 4; FXIa inh mix: 9; CatL inh: -8; Cathepsin G inh: 1

Results for CC1(C)CC(=O)C=C(N=CC2=C(O)CC(C)(C)CC2=O)C1 ?
JNK3 inh: 3; CatL inh: 4

What do the screens show for `O=C(Nc1ccc(Cl)cn1)C1CCCN1S(=O)(=O)c1ccccc1` (stereo not given)?
JNK3 inh: -3; CatL inh: -2

The list is partial. The share of hits here may be higher or lower than overall.
